KCNQ2 pot – enhances the rat KCNQ2 potassium channel; B-score at 10 µM; CHO-K1 KCNQ2, FluxOR thallium flux fluorescence; hits give high values; actives 0.54% (n = 310,000); AID 2239; O88943;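 active = fluorescence ratio B-score at least 3 SD of library B-scores, with initial fluorescence B-score within 3 SD, cut at about 5.3 in these data; same plate scores as AID 2156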;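 also: B-score of peak minus minimum over baseline fluorescence ratio after K+ and Tl+ stimulus; positive B-score means potentiation of KCNQ2 with more thallium influx and brighter signal; only the inactives scoring about 0 or higher are listed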
Target sequence (O88943 whole entry, looked up): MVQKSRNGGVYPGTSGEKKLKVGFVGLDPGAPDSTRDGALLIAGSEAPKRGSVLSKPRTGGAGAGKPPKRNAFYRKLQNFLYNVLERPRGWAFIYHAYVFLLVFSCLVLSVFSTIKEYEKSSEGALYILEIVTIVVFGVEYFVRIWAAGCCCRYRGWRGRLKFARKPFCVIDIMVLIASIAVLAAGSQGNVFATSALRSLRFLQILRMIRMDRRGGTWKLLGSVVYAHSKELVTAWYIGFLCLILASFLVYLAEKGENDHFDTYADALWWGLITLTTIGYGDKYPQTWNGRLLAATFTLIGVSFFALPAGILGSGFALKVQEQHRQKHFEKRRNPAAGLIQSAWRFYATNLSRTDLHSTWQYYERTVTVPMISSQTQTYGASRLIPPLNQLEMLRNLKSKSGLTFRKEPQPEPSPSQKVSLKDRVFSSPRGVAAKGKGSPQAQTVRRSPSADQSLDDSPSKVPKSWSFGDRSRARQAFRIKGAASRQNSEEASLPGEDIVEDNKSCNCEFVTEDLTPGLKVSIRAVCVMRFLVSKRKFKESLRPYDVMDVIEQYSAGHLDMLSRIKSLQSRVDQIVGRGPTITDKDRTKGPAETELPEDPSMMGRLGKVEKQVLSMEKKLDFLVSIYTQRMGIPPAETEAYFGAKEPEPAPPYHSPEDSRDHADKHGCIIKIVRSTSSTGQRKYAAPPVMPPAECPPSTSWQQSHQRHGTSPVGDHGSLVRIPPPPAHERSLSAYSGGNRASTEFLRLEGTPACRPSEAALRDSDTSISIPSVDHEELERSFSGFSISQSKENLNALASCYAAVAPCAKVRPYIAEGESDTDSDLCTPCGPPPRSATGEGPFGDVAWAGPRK
KCNQ2 pot baseline – second read-out of KCNQ2 pot, no call of its own (marks repeat the call); B-score; compound at 10 µM; measured here: initial fluorescence intensity artifact check;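 brightness before thallium and not channel activity; 0 = typical well and far values either way flag optical interference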
An asterisk follows results filed as active. A portion of the library (hit frequency here may not be typical).

The line under a structure holds: KCNQ2 pot | KCNQ2 pot baseline
> CN1CCN(CCCCC(=O)c2ccccc2)CC1
    0.5 | -0.49
> Cc1ccc(NC(=O)c2c3c(nc4ccccc24)CCC3)cc1S(=O)(=O)N(C)C
    0.35 | 0.33
> Cc1nnsc1NC(=O)OCc1ccc(C(C)(C)C)cc1
    0.58 | 1.62
> CS(=O)(=O)Cc1cccc(C(=O)NC2CCSc3ccccc32)c1 (configuration not stated)
    1.16 | -0.21
> CCOC(=O)N1CCN(c2ccc(N3C(=O)CCCC3=O)cc2[N+](=O)[O-])CC1
    2.74 | -0.45
> O=C1C2=C(C(c3ccccc3)=NCCN2)C(c2cccc([N+](=O)[O-])c2)N1c1ccccc1 (configuration not stated)
    0.01 | -0.9
> Cc1nc2cc(CO)ccc2s1
    0.23 | 0.69
> COCc1cc(/C=N\NC(=O)c2ccc(Cl)cc2)ccc1OC
    0.28 | -0.44
> O=C(COc1nncc2ccccc12)Nc1ccc(Br)cc1F
    0.02 | 0.38
> CCOc1ccccc1-c1nc(-c2ccc(NC(=O)Cc3ccccc3OC)cc2)no1
    0.92 | -3.15
> COc1ccc(CC(NC(C)=O)C(=O)NC2CCN(C(=O)c3ccc(Cl)cc3)CC2)cc1 (configuration not stated)
    0.21 | 2.23
> CCN(c1ccc(NC(=O)COC(=O)c2cccs2)cc1)C(C)C
    2.58 | 0.29
> CC(=O)Nc1ccccc1/C=C/c1ccc2c(C)cc(C)c(O)c2n1
    1.24 | -1.4
> Cc1cccc(NCN2C(=O)C3C4C=CC(C4)C3C2=O)c1 (configuration not stated)
    0.96 | 0.09
> COc1cc(NC(=O)Cn2nc(-c3ccc(F)cc3)ccc2=O)ccc1-n1cnnn1
    0.09 | 1.33
> CCOc1ccccc1OCCCC(=O)N(CC)CC(=O)Nc1c(F)cccc1F
    1.54 | -0.88
> O=C(COC(=O)CNC(=O)c1ccc(Br)cc1)NCCC1=CCCCC1
    0.3 | 1.89
> COc1ccc(CNC(=O)CCNS(=O)(=O)c2ccc(C)cc2)cc1
    2.64 | -0.06
> CC1CC(N(C(=O)c2ccco2)c2ccccc2)c2ccccc2N1C(=O)c1ccco1 (configuration not stated)
    0.61 | -1.04
> CCCCCCCC(=O)NC1=NC(=O)C(C)(C)S1
    1.27 | -0.21
> COCCCNC(=O)CCc1nc2cccnc2n1Cc1ccc(OC)cc1
    0.04 | 0.04
> O=C(Nc1nnc(-c2cccs2)o1)c1cc(-c2ccccc2)nc2ccccc12
    1.36 | -0.01
> Cc1ccc(NS(=O)(=O)N2CCOCC2)cc1
    0.9 | 0.01
> CN(C(=O)CSc1ccccc1C(=O)O)C1CCCCC1
    0.03 | -1
> Cc1noc(NS(=O)(=O)c2ccc(NC(=O)C(F)(F)F)cc2)c1C
    0.1 | 0
> Cc1[nH]nc(N=CC2=C(O)CC(c3ccco3)CC2=O)c1-c1ccc(Cl)cc1 (configuration not stated)
    0.15 | 3.59
> COc1cc(NC(=O)COC(=O)c2n[nH]c3ccccc23)c(C)cc1[N+](=O)[O-]
    0.39 | 2.53
> Cc1ccc(N2C(N)=C(C#N)C(c3cc(CN4CCOCC4)cs3)C3=C2CC(C)(C)CC3=O)cc1 (configuration not stated)
    0.69 | -1.13
> Cc1cc(=O)c2ccc(C(F)(F)F)cc2[nH]1
    0.94 | 1.85
> CC(C)(C)OC(=O)NCCCC[C@@H](C(=O)N1CCN(C(=O)OC(C)(C)C)CC1)n1cc(C(CO)NC(=O)OC(C)(C)C)nn1 (some centres not stated)
    1.17 | -0.73

Single records (already shown):
Results for COCCCNC(=O)CCc1nc2cccnc2n1Cc1ccc(OC)cc1 → KCNQ2 pot = 0.04; KCNQ2 pot baseline = 0.04
Results for Cc1cc(=O)c2ccc(C(F)(F)F)cc2[nH]1 → KCNQ2 pot = 0.94; KCNQ2 pot baseline = 1.85
Results for Cc1[nH]nc(N=CC2=C(O)CC(c3ccco3)CC2=O)c1-c1ccc(Cl)cc1 (configuration not stated) → KCNQ2 pot = 0.15; KCNQ2 pot baseline = 3.59

Some of the entries so far, as comma-separated lines.
SMILES,KCNQ2 pot,KCNQ2 pot baseline
CS(=O)(=O)Cc1cccc(C(=O)NC2CCSc3ccccc32)c1 (configuration not stated),1.16,-0.21
O=C(COc1nncc2ccccc12)Nc1ccc(Br)cc1F,0.02,0.38

Next section.
The line under a structure holds: KCNQ2 pot | KCNQ2 pot baseline
> Cc1ccc(C)c(S(=O)(=O)N2CCN(C(=O)c3cccn3C)CC2)c1
    0.27 | 0
> Cc1cc(C(=O)N2CCCC(Nc3ccc(F)cc3)C2)c(C)o1 (configuration not stated)
    1.49 | -0.41
> O=C(CSc1nccc(=O)[nH]1)Nc1cc(C(F)(F)F)ccc1N1CCOCC1
    0.06 | -1.39
> N#C/C(=C\C1CC=CCC1)c1nc2ccccc2[nH]1 (configuration not stated)
    0.79 | -0.21
> CCN(CC)S(=O)(=O)c1cccc(C(=O)NC2=NCCS2)c1
    2.9 | -0.46
> CC1(C)CC(=O)C2=C(C1)NC(SCC(=O)Nc1ccccc1)=C(C#N)C2c1ccco1 (configuration not stated)
    1.31 | -0.41
> C(=N\Nc1nnnn1-c1ccccc1)/c1ccncc1
    0.98 | 1.37
> Cc1cccc(N2C(=O)C(Cl)=C(Nc3c(C)n(C)n(-c4ccccc4)c3=O)C2=O)c1C
    1.76 | -0.36
> Cc1cccc(NC(=S)N/N=C/c2c[nH]c3ccccc23)c1
    0.58 | 0.53
> Cc1cccc(NC(=O)CSc2nnc(-c3ccco3)o2)c1
    0.64 | -1.53
> COc1cc(CN(C(=S)NCC(=O)O)C2CCCC2)cc(OC)c1OC
    0.41 | -0.05
> O=C1CC(N2CCN(c3ccccn3)CC2)C(=O)N1c1ccc(Cl)cc1 (configuration not stated)
    1.82 | 0.03
> COc1ccc(/C=C(/NC(=O)c2ccco2)C(=O)N2CCCCCC2)cc1OC
    1.3 | 0.74
> CC(=O)Nc1ccc2oc(C)nc2c1
    1.13 | -1.3
> O=C(CC1C(=O)NCCN1CC1CCCCC1)NCc1cccc(F)c1F (configuration not stated)
    0.1 | -1.18
> C/C(=N\NC(=O)c1ccc(CN2CCc3ccccc3C2)cc1)c1ccccc1O
    1.76 | 0.3
> Cc1ccc(NC(=O)c2ccc(CSc3ccccn3)cc2)cc1
    0.29 | -1.48
> CCOc1ccc(N2C(=O)CC(N3CCN(c4ccc(F)cc4)CC3)C2=O)cc1 (configuration not stated)
    1 | 0.31
> COc1ccc(S(=O)(=O)N2CCOC2CNC(=O)C(=O)NCCCN2CCOCC2)cc1OC (configuration not stated)
    0.34 | -0.37
> Cc1[nH][nH]c(=O)c1C=NCc1cccnc1
    0.26 | -1.79
> Cc1ccccc1OC1C(=O)N(CC2CCCO2)C1c1ccc2c(c1)OCO2 (configuration not stated)
    1.48 | 2.55
> CCCCc1ccc(NC(=O)COc2ccc(C(=O)Nc3ccccc3OCC)cc2)cc1
    0.48 | 1.08
> OCCC#Cc1c(-c2ccsc2)sc2ccccc12
    0.74 | -0.37
> COc1ccc(-c2nc3ccc([N+](=O)[O-])cc3o2)cc1
    1.68 | 0.74
> Cc1ccc(C(=O)Oc2csc(=S)n2C(=O)c2ccc(C)cc2)cc1
    0.89 | -0.38
> CCOC(=O)C1CCN(C(=O)c2cc(S(=O)(=O)N3CCCCCC3)ccc2OC)CC1
    0.26 | -0.7
> COc1ccc(CNC(=O)CC(C)S(=O)(=O)c2ccc3c(c2)NC(=O)CO3)cc1 (configuration not stated)
    0.25 | -0.51
> Cc1cccc(N(Cc2nnc3n2CCCCC3)C(=O)Nc2ccccc2)c1
    0.32 | -0.73
> O=C(NCC(c1cccs1)N1CCOCC1)c1ccco1 (configuration not stated)
    0.34 | 0.98
> CN(C)c1ccc(CNC(=O)c2cc(S(=O)(=O)N3CCOCC3)cn2C)cc1
    1.24 | 0.22
> COc1ccc(NC(=O)Nc2ccncc2)c(OC)c1
    0.01 | 0.12
> COc1ccc(OCC(=O)N/N=C/C=C/c2ccccc2)cc1
    0.11 | -0.37
> COc1ccc(S(=O)(=O)NCCc2ccco2)cc1OC
    0.44 | -0.51
> COc1ccc(N2C(=O)CC(Nc3ccc(C(=O)O)cc3)C2=O)cc1OC (configuration not stated)
    0.2 | -0.27
> COc1ccc(NC(=O)c2ccccc2NC(=O)COc2ccccc2)cc1
    0.05 | -0.91
> CCCCC(=O)Nc1ncc(S(=O)(=O)c2ccc([N+](=O)[O-])cc2)s1
    1.11 | -0.99
> Cc1ccc2c(COC(=O)c3ccc(C)c(C)c3)cc(=O)oc2c1
    0.23 | 1.08
> O=C(CNc1ccc(F)cc1)N/N=C1\CCc2ccccc21
    1.03 | 0.11
> CC(=O)c1c(C(C)=O)c(C)n(-c2ccc3ncccc3c2)c1C
    0.17 | 1.12
> COCC(C)n1c(C)cc(C(=O)CSc2nnc(Nc3ccccc3F)s2)c1C (configuration not stated)
    0.02 | 0.07
> CN(c1ccc(C(=O)NCc2ccncc2)cc1)S(C)(=O)=O
    0.11 | 1.16
> C=CCN(c1ccccc1)S(=O)(=O)c1cccc(C(=O)O)c1
    0.98 | 1.15
> CNC(=O)NC(=O)COC(=O)c1cccc(S(=O)(=O)N2CC3(C)CC2CC(C)(C)C3)c1 (configuration not stated)
    1.2 | -0.55
> O=C(C1CCC1)N1CCN(c2ccnc3cc(Cl)ccc23)CC1
    1.3 | 0.71
> CCCN(CCC)C(=O)Cn1c(=O)n(CCC(=O)NCCc2ccccc2)c(=O)c2ccccc21
    0.42 | 0.55
> CC(C)(C)[C@H]1C=C(C(=O)N2CCOCC2)O[C@@H](OCc2ccc(CO)cc2)C1
    0.19 | -2.17
> CCO[C@@H]1OC(C(=O)N2CCOCC2)=C[C@H](c2cn(C(C)=O)c3ccccc23)[C@H]1CCCO
    0.24 | -0.05
> COc1ccc(NC(=O)n2ncc3c(C)cccc32)cc1
    0.01 | 0.54
> O=C(Cn1c(=O)n(CC2CCCO2)c(=O)c2ccccc21)c1ccc(Cl)c(Cl)c1 (configuration not stated)
    0.07 | -0.31
> CN(C)c1nc(NS(=O)(=O)c2ccc(Cl)cc2)nc(N(C)C)n1
    0.99 | -0.16

New compounds follow.
The line under a structure holds: KCNQ2 pot | KCNQ2 pot baseline
> Cc1ccc2nc3c(c(Nc4ccc(O)cc4)c2c1)CCC3
    1.63 | 0.05
> CCC(NC(=S)NC1CCCCC1)c1ccc(C(C)C)cc1 (configuration not stated)
    14.4* | 1.05*
> O=[n+]1cc(-c2ccc(Cl)cc2)n([O-])c2c1CCC2
    0.43 | -0.02
> CN(Cc1cccc2cnccc12)C(=O)c1cc(COc2ccc(F)cc2F)on1
    1.9 | -2.73
> COc1cccc(NC(=S)NC2CC3CCCC(C2)N3CC(C)C)c1 (configuration not stated)
    2.21 | -1.69
> COc1ccc(C2CC(C(F)(F)F)n3ncc(C(=O)Nc4cccc(O)c4)c3N2)cc1OC (configuration not stated)
    0.08 | -0.47
> COc1ccc(C(C(=O)NC2CCCC2)N(Cc2cccnc2)C(=O)Cc2cccs2)c(OC)c1 (configuration not stated)
    0.5 | 1.05
> O=C(COC(=O)c1nc(Cl)ccc1Cl)c1ccc(Cl)s1
    0.71 | 0.93
> COc1ccc(Oc2ccc(N/C=C3/CCCC3=O)cc2)cc1
    0.12 | -1.33
> Cc1cccc(-n2nnnc2SCC(=O)N(CC(C)C)c2c(N)n(CC(C)C)c(=O)[nH]c2=O)c1
    1.6 | 0.73
> COc1ccc(NC(=O)Nc2nnc(N3CCC(C)CC3)s2)cc1OC
    0.36 | 1.74
> Fc1ccccc1NC(=S)NNc1ncc(C(F)(F)F)cc1Cl
    0.44 | -1.63
> Cc1ccc(CNC(=O)c2ccc[nH]2)cc1
    1.86 | 0.77
> COc1ccc(C2C(C(C)=O)=C(O)C(=O)N2c2ccc(O)cc2)cc1 (configuration not stated)
    1.21 | -0.22
> COc1cc(OC)c(OC)cc1/C=N/n1c(-c2n[nH]c3c2CCC3)n[nH]c1=S
    0.25 | 0.46
> Cc1cccc(-n2cnc3cc(C(=O)N4CCCCC4)ccc32)c1
    1.45 | -0.03
> O=C(CNC(=O)c1sc2ccccc2c1Cl)NCc1cccnc1
    0.06 | -1.31
> CCCN1CCN(CCCNC(=O)C2CCN(c3nnc(-n4c(C)ccc4C)s3)CC2)CC1
    1.21 | 1.62
> CC(C)CN1C(=O)C(=O)N(CC(=O)NCc2ccc3c(c2)OCO3)C1=O
    0.46 | 0.17
> COc1ccccc1C(=O)Nc1cc2ccccc2oc1=O
    2.31 | 0.36
> CC1CCc2c(nc3ncnn3c2N2CCN(c3ccccc3)CC2)C1 (configuration not stated)
    1.3 | -0.06
> Cc1nn(-c2ccc(F)cc2)c(C)c1CN1CCN(CCc2ccccc2)C(CCO)C1 (configuration not stated)
    0.02 | 0.82
> NC(=O)c1c(NC(=S)Nc2ccc(F)cc2)sc2c1CCCC2
    0.87 | 0.87
> CCOC(=O)CCNC(=O)Nc1ccc2nc(C)n(Cc3cccc(Cl)c3)c(=O)c2c1
    0.06 | -1.55
> O=C(NC(=S)NC1CCSC1=O)c1cccc([N+](=O)[O-])c1 (configuration not stated)
    0.9 | -1.83
> OCCNc1ncnc2c1sc1nc(N3CCOCC3)c3c(c12)CCC3
    0.26 | -0.02
> CCCN(CC(=O)Nc1ccccc1C)C(=O)C1CC(=O)N(c2cccc(C)c2C)C1 (configuration not stated)
    0.01 | 0.7
> CCCCn1c(N)c(N(CCOC)C(=O)C2CC(=O)N(c3cccc(SC)c3)C2)c(=O)[nH]c1=O (configuration not stated)
    1.42 | -0.01
> CC(NC(=O)Cn1cccc1C(=O)c1ccccc1)c1ccccc1 (configuration not stated)
    2.48 | 0.73
> CC(OC(=O)c1cc(=O)[nH]c2ccccc12)c1ccccc1 (configuration not stated)
    0.02 | -0.23

Compound activity deposited in PubChem BioAssay by Johns Hopkins Ion Channel Center.
